High-throughput results deposited in PubChem BioAssay by several laboratories.
MT1-MMP act inh: inhibitors of human MT1-MMP activation; HT1080 RFP-PRO-GFP cells, GFP/RFP ratio fluorescence, overnight; percent of plate control window, DMSO zero; GFP/RFP ratio change, % at 20 µM; 0.061% of 360,000 active; P50281; AID 651647;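 active = GFP/RFP ratio change of at least 30% with cell ATP level not reduced by more than half and red fluorescence within 50% of control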; note: strong numbers were not always called active
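Compound: 20 µM single dose, 1% DMSO / System: HT1080 RFP-PRO-GFP cells / Controls: DMSO and RFP-L50D-GFP cell wells / Read-out basis: GFP/RFP fluorescence ratio / Schedule: overnight compound exposure at 37 °C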
CSC inhib: blocks cancer stem cells. inhibition, % at 7.5 µM. AID 2717. cancer stem cell-like cells viability, luminescence. 1.1% of 300,000 active;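 active = mean at 75% or more and at least half the replicates too; tested in HMLE shEcad cells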;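 note: 0% = median of negative and 100% = median of positive control wells; the first replicate is given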
UUG fidelity: yeast start codon fidelity modulation | activity score, % at 18.7 µM | 0.13% of 350,000 active | S. cerevisiae UUG-firefly luciferase reporter, luminescence/redox ratio | AID 602363;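 active = replicate mean at a twofold rise or more, about +100% in these data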;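 note: firefly luciferase made from a UUG start codon reports start codon fidelity; reporter light over untreated wells divided by growth signal over untreated wells; some hits fall short of that in this replicate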
Env fusion inh: blocks HIV Env-driven cell-cell fusion; 1.1% of 360,000 active; inhibition, % at 12.3 µM; AID 651610; HeLa-JRFL Env/CEM21 cell fusion, luciferase;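 active = mean replicate inhibition score of at least 50 and every replicate individually at or above 50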;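 note: 0% = plate neutral controls and 100% = maraviroc near 300 nM; one replicate is shown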
PABP FP inh: blocks human PABP binding to poly(A) RNA. AID 2014. 1% of 290,000 active. inhibition, % at 35 µM. fluorescence polarization. P11940;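 active = 50% or more with normal probe brightness, or confirmed in later tests; about a fifth of its hits are not listed in these tables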;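 note: calls also rest on retests at 20 µM and on dose response follow-up; controls were probe without protein and protein plus probe with vehicle; some compounds called inactive have numbers as strong as hits; many hits fall short of the cut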
Target sequence (P11940 whole entry, looked up): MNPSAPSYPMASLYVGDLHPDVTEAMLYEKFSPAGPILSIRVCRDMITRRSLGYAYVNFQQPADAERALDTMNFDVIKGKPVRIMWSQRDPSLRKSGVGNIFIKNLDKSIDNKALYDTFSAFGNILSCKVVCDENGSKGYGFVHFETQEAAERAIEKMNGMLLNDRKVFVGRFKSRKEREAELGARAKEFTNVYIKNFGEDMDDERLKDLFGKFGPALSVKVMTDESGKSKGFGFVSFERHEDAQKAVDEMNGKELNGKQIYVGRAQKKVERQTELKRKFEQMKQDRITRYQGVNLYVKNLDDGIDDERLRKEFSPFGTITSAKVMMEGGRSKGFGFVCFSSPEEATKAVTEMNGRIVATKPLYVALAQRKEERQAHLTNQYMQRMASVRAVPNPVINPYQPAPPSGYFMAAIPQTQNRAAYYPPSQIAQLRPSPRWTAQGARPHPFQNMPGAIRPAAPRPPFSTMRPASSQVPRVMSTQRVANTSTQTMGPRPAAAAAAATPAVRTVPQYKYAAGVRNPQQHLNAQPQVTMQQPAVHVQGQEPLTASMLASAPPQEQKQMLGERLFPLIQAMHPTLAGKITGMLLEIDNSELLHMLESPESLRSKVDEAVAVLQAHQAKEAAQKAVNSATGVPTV
Rce1 inhib: inhibitors of yeast Ras-converting enzyme. Q03530. yeast membranes, quenched prenylated peptide cleavage fluorescence. calls only. 0.27% of 290,000 active. AID 2563;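 active = fall in fluorescence gain of 50% or more versus controls, with final raw signal at or below 3038400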;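 note: plate controls were neutral control wells for no effect and wells lacking membranes for full effect; tested at 10 µM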
Target sequence (Q03530 whole entry, looked up): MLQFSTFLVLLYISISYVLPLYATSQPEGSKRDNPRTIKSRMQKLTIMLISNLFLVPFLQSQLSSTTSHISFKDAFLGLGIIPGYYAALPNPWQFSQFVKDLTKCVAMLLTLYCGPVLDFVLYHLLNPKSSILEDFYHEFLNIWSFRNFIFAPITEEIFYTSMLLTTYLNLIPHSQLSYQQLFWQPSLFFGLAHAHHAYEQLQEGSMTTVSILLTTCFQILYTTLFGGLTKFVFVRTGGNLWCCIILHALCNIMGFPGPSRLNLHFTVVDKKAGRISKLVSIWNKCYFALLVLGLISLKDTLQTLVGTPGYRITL
eIF4H inh: inhibitors of RNA binding by human eIF4H. Q15056. eIF4H fluorescence polarization binding assay. inhibition, % at 35 µM. 0.94% of 290,000 active. AID 2012;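 active = 50% or more with normal probe brightness, or confirmed in later tests; about a fifth of its hits are not listed in these tables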;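 note: calls also rest on retests at 20 µM and on dose response follow-up; 0% = protein and probe with vehicle and 100% = probe without protein; strong numbers were not always called active; many hits fall short of the cut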
eIF4H inh retest: second read-out of eIF4H inh, no call of its own (marks repeat the call); inhibition, %; compound at 20 µM; confirmation average;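 mean of two retest wells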
PABP FP inh retest: further read-out of PABP FP inh, marked with its call; inhibition, %; compound at 20 µM; confirmation repeats;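 mean of two retest wells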
MT1-MMP act inh RFP: second read-out of MT1-MMP act inh, no call of its own (marks repeat the call); RFP signal change, %; measured here: RFP expression control read;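 0 = vehicle wells; hits needed this value within 50% of zero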
* = called active by the depositor. An excerpt. The share of hits here may be higher or lower than overall.

Cc1ccc(-n2nc(C(=O)NCc3ccco3)c3c4ccccc4n(C)c3c2=O)cc1 was read as MT1-MMP act inh 5, CSC inhib 23, UUG fidelity -20, PABP FP inh -1, Rce1 inhib inactive, eIF4H inh 5 and MT1-MMP act inh RFP 2.
For CCCCNC(=O)CCn1c(=O)c2ccccc2n(Cc2cc(C)ccc2C)c1=O the results were MT1-MMP act inh 8, UUG fidelity -20, Env fusion inh -14, PABP FP inh -6, Rce1 inhib inactive, eIF4H inh -7 and MT1-MMP act inh RFP 3.
CCN(C(=S)Nc1ccc(C(C)=O)cc1)C1CCCCC1 was read as MT1-MMP act inh -3, CSC inhib -7, Env fusion inh 16, PABP FP inh -3, Rce1 inhib inactive, eIF4H inh 2 and MT1-MMP act inh RFP 3.
Screening CCOC(=O)CC(NC(=O)c1ccc(C)cc1)c1ccc(C)cc1 (stereo not drawn) returned MT1-MMP act inh -2, CSC inhib -11, UUG fidelity -17, Env fusion inh -38, PABP FP inh -8, Rce1 inhib inactive, eIF4H inh -6 and MT1-MMP act inh RFP 2.
`CSc1nc(N)nc2c1ncn2CC(=O)NCc1ccc2c(c1)OCO2` gave MT1-MMP act inh 2, UUG fidelity -18, Env fusion inh 28 and MT1-MMP act inh RFP -11.
Cc1cc(=O)[nH]c2[nH][nH]c(=O)c12 was read as MT1-MMP act inh 1, UUG fidelity -10, Env fusion inh -6 and MT1-MMP act inh RFP -1.
For CC[C@]12C(=O)N(C)C[C@H]([C@@H]3C(=O)N(C)C(=O)[C@@H]31)N2C(=O)c1ccc(Br)cc1 the results were MT1-MMP act inh -4, UUG fidelity -15, Env fusion inh -37 and MT1-MMP act inh RFP 4.
Cc1nn(C)cc1/C=C1\CCC/C(=C\c2cn(C)nc2C)C1=O was read as MT1-MMP act inh -4, CSC inhib 16, UUG fidelity -9, PABP FP inh 5, Rce1 inhib inactive, eIF4H inh 2 and MT1-MMP act inh RFP -3.
`COc1cc2c(cc1OC)C(=O)N1[C@H]3c4ccccc4OC[C@@H]3[C@H](c3ccccc3)[C@]1(C)C(=O)N2` gave MT1-MMP act inh -10, CSC inhib 7, UUG fidelity -9, Env fusion inh 66* and MT1-MMP act inh RFP -9.
Screening Cc1ccnc(NS(=O)(=O)c2ccc(NC(=O)c3oc4ccccc4c3C)cc2)n1 returned MT1-MMP act inh 1, CSC inhib -20, UUG fidelity 4, Env fusion inh -2, PABP FP inh 8, Rce1 inhib inactive, eIF4H inh 11 and MT1-MMP act inh RFP -4.
`CC1CCN(C(=O)c2ccc3c(c2)NC(=O)CN3)CC1` gave CSC inhib -8, Env fusion inh 1, PABP FP inh -6, Rce1 inhib inactive and eIF4H inh -5.
For COC(=O)C1=NN(C(=O)c2ccc(Br)cc2)C(O)(C(C)(C)C)C1 (stereo not drawn) the results were Env fusion inh 21, PABP FP inh -11 and eIF4H inh 4.
`Cc1cccc(NC(=O)C(C)OC(=O)c2ccccc2NS(=O)(=O)c2cc(C)c(C)c([N+](=O)[O-])c2)c1` (stereo not drawn) gave MT1-MMP act inh -2, CSC inhib 65, Env fusion inh 29, PABP FP inh -5, Rce1 inhib inactive, eIF4H inh 7 and MT1-MMP act inh RFP -11.
O=C1C2C3CCC(O3)C2C(=O)N1c1cccc(O)c1 (stereo not drawn) was read as MT1-MMP act inh 2, CSC inhib 10, UUG fidelity -19, Env fusion inh -10, PABP FP inh 6, Rce1 inhib inactive, eIF4H inh -4 and MT1-MMP act inh RFP 1.
O=C(N/C=N/OCc1ccc(Cl)cc1Cl)NOCc1c(Cl)cccc1Cl was read as MT1-MMP act inh -7, CSC inhib 68, UUG fidelity -8, PABP FP inh -3, Rce1 inhib inactive, eIF4H inh 0 and MT1-MMP act inh RFP -8.
Screening CCOC(=O)CSC1=C(C#N)C(c2ccccc2OCC)C(C#N)C(=O)N1 (stereo not drawn) returned MT1-MMP act inh 1, CSC inhib 17, UUG fidelity -19, Env fusion inh -67, PABP FP inh 10, Rce1 inhib inactive, eIF4H inh 5 and MT1-MMP act inh RFP -2.
For COc1ccc(NC(=O)CCc2nc3ccccc3c(=O)[nH]2)cc1S(=O)(=O)N1CCCCC1 the results were MT1-MMP act inh 1, CSC inhib -9, UUG fidelity -5, Env fusion inh 10 and MT1-MMP act inh RFP -3.
`COc1ccc(CC(=O)OCC(=O)NC2CCCC(C)C2C)cc1` (stereo not drawn) gave MT1-MMP act inh 4, CSC inhib -14, UUG fidelity -4, Env fusion inh -4 and MT1-MMP act inh RFP 3.
Screening O=C(O)CCCN1C(=O)/C(=C/C=C/c2ccco2)SC1=S returned MT1-MMP act inh 4, CSC inhib 25, Env fusion inh 14, PABP FP inh 92*, Rce1 inhib inactive, eIF4H inh 98* and MT1-MMP act inh RFP 8.
For CCS(=O)(=O)N1CCC(C(=O)N2CCN(Cc3ccccc3)CC2)CC1 the results were MT1-MMP act inh -1, CSC inhib -5, Env fusion inh 1, PABP FP inh -14, Rce1 inhib inactive, eIF4H inh -7 and MT1-MMP act inh RFP 2.
Screening Cc1ccc(C)c(NC(=O)CN2C(=O)NC(CCc3ccccc3)C2=O)c1 (stereo not drawn) returned MT1-MMP act inh 3, CSC inhib 3, UUG fidelity -19, Env fusion inh -8 and MT1-MMP act inh RFP 4.
Oc1c(C=Nc2cccc3nsnc23)ccc2ccccc12 was read as CSC inhib 87*, Env fusion inh -58, PABP FP inh 51, Rce1 inhib inactive, eIF4H inh 31, eIF4H inh retest 8 and PABP FP inh retest 4.
Screening O=C(N1CCN(CCO)CC1)N1c2ccccc2C=Cc2ccccc21 returned MT1-MMP act inh 6, CSC inhib -14, UUG fidelity 2, PABP FP inh 0, Rce1 inhib inactive, eIF4H inh -1 and MT1-MMP act inh RFP 6.
COc1ccccc1C1C2=C(CCCC2=O)N(CC(=O)O)C2=C1C(=O)CCC2 was read as MT1-MMP act inh 0, CSC inhib -14, UUG fidelity -15, Env fusion inh -9, PABP FP inh 15, Rce1 inhib inactive, eIF4H inh 19 and MT1-MMP act inh RFP 1.

Arranged by count of non-hydrogen atoms (highest first): some entries from above
Screening CCOC(=O)CSC1=C(C#N)C(c2ccccc2OCC)C(C#N)C(=O)N1 (stereo not drawn) returned MT1-MMP act inh 1, CSC inhib 17, UUG fidelity -19, Env fusion inh -67, PABP FP inh 10, Rce1 inhib inactive, eIF4H inh 5 and MT1-MMP act inh RFP -2.
O=C(N/C=N/OCc1ccc(Cl)cc1Cl)NOCc1c(Cl)cccc1Cl was read as MT1-MMP act inh -7, CSC inhib 68, UUG fidelity -8, PABP FP inh -3, Rce1 inhib inactive, eIF4H inh 0 and MT1-MMP act inh RFP -8.
Screening O=C(O)CCCN1C(=O)/C(=C/C=C/c2ccco2)SC1=S returned MT1-MMP act inh 4, CSC inhib 25, Env fusion inh 14, PABP FP inh 92*, Rce1 inhib inactive, eIF4H inh 98* and MT1-MMP act inh RFP 8.

Next results
For COc1ccc(-c2noc(N3CCC(C(=O)Nc4ccc(F)cc4)CC3)n2)cc1 the results were MT1-MMP act inh 3, CSC inhib -3, UUG fidelity -4, Env fusion inh 7, PABP FP inh 8, Rce1 inhib inactive, eIF4H inh 2 and MT1-MMP act inh RFP -8.
For Fc1ccc(/C=N/n2c(C3CCCCC3)n[nH]c2=S)cc1 the results were MT1-MMP act inh -5, CSC inhib -13, UUG fidelity -19, Env fusion inh -4, PABP FP inh -6, Rce1 inhib inactive, eIF4H inh 5 and MT1-MMP act inh RFP -4.
`COc1ccccc1NS(=O)(=O)c1cn(C)cn1` gave MT1-MMP act inh 4, CSC inhib -11, UUG fidelity -19, Env fusion inh -45, PABP FP inh -4, Rce1 inhib inactive, eIF4H inh -13 and MT1-MMP act inh RFP 4.
For COc1ccc(C(=O)NCc2cccnc2)cc1S(=O)(=O)N1CCCc2ccccc21 the results were MT1-MMP act inh -2, CSC inhib -13, UUG fidelity -8, Env fusion inh -7, PABP FP inh 2, Rce1 inhib inactive, eIF4H inh -1 and MT1-MMP act inh RFP -7.
O=C(C1Cc2ccccc2CN1S(=O)(=O)c1ccc(F)cc1)N1CCCCCC1 (stereo not drawn) was read as MT1-MMP act inh -2, CSC inhib 0, UUG fidelity -3, Env fusion inh 4, PABP FP inh -2, Rce1 inhib inactive, eIF4H inh -2 and MT1-MMP act inh RFP -1.
COc1ccc2c(-c3ccccc3)cc3nnnn3c2c1 was read as MT1-MMP act inh 7, CSC inhib -16, UUG fidelity -13, PABP FP inh 8, Rce1 inhib inactive, eIF4H inh -7 and MT1-MMP act inh RFP 0.
NC(=O)C(c1ccccn1)c1ncc(C(F)(F)F)cc1Cl (stereo not drawn) was read as MT1-MMP act inh -3, CSC inhib -5, Env fusion inh 10, PABP FP inh -5, Rce1 inhib inactive, eIF4H inh -7 and MT1-MMP act inh RFP -1.
Screening Cc1ncc(CO)c2c1Oc1nc(-c3ccccc3)nc(SCC(=O)N3CCOCC3)c1C2 returned MT1-MMP act inh -3, CSC inhib -14, UUG fidelity -6, Env fusion inh 15, PABP FP inh -2, Rce1 inhib inactive, eIF4H inh -4 and MT1-MMP act inh RFP -1.
For OCc1ccc(N=Nc2ccccc2)cc1 the results were MT1-MMP act inh 5, CSC inhib 3, UUG fidelity -23, Env fusion inh -80, Rce1 inhib inactive and MT1-MMP act inh RFP 0.
`COc1ccc(C(=O)Nc2ccc(O)cc2C(=O)O)cc1` gave MT1-MMP act inh 1, CSC inhib -9, Env fusion inh -2, PABP FP inh 2, Rce1 inhib inactive, eIF4H inh -1 and MT1-MMP act inh RFP 3.
Screening CCC1(C)Cc2c(C#N)c(N)sc(=S)c2CO1 (stereo not drawn) returned MT1-MMP act inh -17, CSC inhib -6, UUG fidelity -7, Env fusion inh 26, PABP FP inh 48, Rce1 inhib inactive, eIF4H inh 42 and MT1-MMP act inh RFP 9.
Screening N#Cc1cccnc1N1CCN(C(=O)COCC(=O)O)CC1 returned MT1-MMP act inh 2, CSC inhib -13, Env fusion inh 8, PABP FP inh 1, Rce1 inhib inactive, eIF4H inh -9 and MT1-MMP act inh RFP 2.
Cc1ccccc1-n1c(SCC(=O)O)nc2sc3c(c2c1=O)CCCC3 was read as MT1-MMP act inh 3, CSC inhib -10, UUG fidelity 12, Env fusion inh -1, PABP FP inh 3, Rce1 inhib inactive, eIF4H inh 6 and MT1-MMP act inh RFP 4.
For Cc1ccc(C(=O)Nc2cccnc2N2CCN(C)CC2)cc1 the results were MT1-MMP act inh 1, Env fusion inh -2, PABP FP inh 16, Rce1 inhib inactive, eIF4H inh -1 and MT1-MMP act inh RFP 3.
O=C(CN1C(=O)CS/C1=C\c1nc(-c2ccc(Cl)cc2)cs1)Nc1cccnc1Cl was read as MT1-MMP act inh 2, CSC inhib -7, Env fusion inh -13, PABP FP inh 9, Rce1 inhib inactive, eIF4H inh -1 and MT1-MMP act inh RFP 0.
Screening CCCCNC(=O)c1onc(CSc2nc3ccccc3[nH]2)c1C(=O)NCCCC returned MT1-MMP act inh -1, CSC inhib 14, UUG fidelity -7, Env fusion inh -6, PABP FP inh 9, Rce1 inhib inactive, eIF4H inh -1 and MT1-MMP act inh RFP -3.
COc1ccc2c(C)cc(=S)[nH]c2c1 was read as MT1-MMP act inh 0, Env fusion inh -4, PABP FP inh 10, Rce1 inhib inactive, eIF4H inh 8 and MT1-MMP act inh RFP 0.
Screening O=C1CC(C(=O)Nc2ccccc2)C2(CCCC2)O1 (stereo not drawn) returned MT1-MMP act inh -1, CSC inhib -14, UUG fidelity -14, Env fusion inh 29, PABP FP inh 1, Rce1 inhib inactive, eIF4H inh 0 and MT1-MMP act inh RFP -1.
Screening Cc1cccc(NC(=O)CSCC(=O)Nc2ccccc2N2CCCCC2)c1 returned MT1-MMP act inh 3, CSC inhib -1, Rce1 inhib inactive and MT1-MMP act inh RFP 5.
